# MgrA-DNA mod: modulators of Staphylococcus aureus MgrA DNA binding. actives 0.13% (n = 84,000). inhibition, %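 (about 10 µg/mL by stock and volumes)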. fluorescence polarization;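 active = above 50% in either of two replicates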;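 also: 0% = protein plus DNA without compound and 100% = DNA alone without protein; higher means less MgrA bound to DNA so lower polarization; one replicate is shown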
# S aureus helic: blocks Staphylococcus aureus DNA helicase; purified S. aureus helicase, fluorescence unwinding assay; about half of the hits fall short of the stated cut; inhibition, %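 (tested at about 80 µM)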; actives 0.05% (n = 120,000); AID 485395;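 active = both duplicates at 50% or more, or one of them with a favoured structure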;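 also: 0% = mean of negative control wells and 100% = mean of positive control wells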
# * marks the source's active call; other numbers are inactive results; . = not tested or not shown.
Compound	MgrA-DNA mod	S aureus helic
CSc1nn(Cc2ccccc2)c(N)c1S(=O)(=O)c1ccccc1	.	-29
CC(C)c1cc(C(=O)NCc2ccc(Cl)cc2)no1	1.0	8
CC(C)NC(=O)c1ccc(OC2CSC2)cc1	-1.7	11
COc1ccc2oc(=O)cc(C)c2c1	-2.3	8
CC1CCN(c2nc3ccccn3c(=O)c2/C=N/NC(=O)c2ccccc2)CC1	.	-44
CCC1Oc2ccc(C)cc2N(CC(=O)NCC2COc3ccccc3O2)C1=O (centres undefined)	-1.8	14
CC(C)[C@@H](C(=O)O)N1Cc2ccccc2C1=O	.	-23
COc1ccc(NC(=O)CSc2ncc(S(=O)(=O)c3ccccc3)c(=O)[nH]2)c(OC)c1	.	4
O=C(CSc1nc2nn(-c3ccccc3)c(=O)c-2c2n1CCCCC2)Nc1ccc2c(c1)OCO2	.	-9
FC(F)(F)C12CC(c3ccccc3)=NCCN1CCN2 (centres undefined)	.	16
Cc1cc(C(=O)NCc2ccc3c(c2)OCCCO3)nn1C	-0.6	.
CC(C)c1cccc(C(C)C)c1NC(=O)Cc1cccs1	-0.5	-3
O=c1[nH]c2c(n1-c1ccccc1)C=Nc1cc3ccccc3cc1N2	1.5	12
CCn1c(C)c(C2=CCN(S(=O)(=O)c3ccc(C)cc3)CC2)c2ccccc21	.	1
CC1CC(C)CN(S(=O)(=O)c2ccc(C(=O)Nc3cccc4c3C(=O)c3ccccc3C4=O)cc2)C1 (centres undefined)	-1.1	.

# Additional results.
Compound	MgrA-DNA mod	S aureus helic
O=c1cc(-c2ccccc2)c2cc(Cl)c(O)cc2o1	.	14
CCN(C(=O)CSc1nnc(-c2ccco2)n1Cc1ccccc1)C1=CCCC1	.	-11
COC(C)OC(=O)Cn1c(=O)sc2cccc(Cl)c21 (centres undefined)	-2.4	4
CCOc1ccccc1NC(=S)NCC(C)CSc1ccc(C)cc1 (centres undefined)	0.8	13
Cc1cc2n(n1)CCCN2Cc1ccc(C(=O)NC2CCCCC2)cc1	.	0
CC(=O)NC(CC(=O)Nc1ccc(S(C)(=O)=O)cc1)c1ccccc1 (centres undefined)	.	10
O=C(Nc1ccc(Cl)cc1)Nc1nc(CC(=O)N2CCN(C(=O)c3ccco3)CC2)cs1	.	5
Cc1cc(=O)oc2cc3occ(-c4ccc(F)cc4)c3cc12	.	24
CCC1CCc2nc3sc(C(=O)NCCc4ccc(OC)cc4)c(N)c3cc2C1 (centres undefined)	1.1	-7
COc1ccc(CCN(C)CCc2ccc(OC)c(OC)c2)cc1OC	0.0	.
CCOc1ccc(-c2nnc3ccc(SCC)nn23)cc1	.	-19
CCN(CC(=O)Nc1ccc(OC)cc1)C(=O)c1ccc(C#N)cc1	.	-1
CN(C(=O)Cc1c(C(=O)O)[nH]c2ccccc12)c1ccccc1	.	-12
NN1CCN(Cc2cccc3ccccc23)CC1	2.5	11
O=C(c1ccccc1)c1ccccc1C(=O)N1CCOCC1	2.5	6

# (cont.)
Compound	MgrA-DNA mod	S aureus helic
CCc1ccc(-c2nnn(Cc3nn[nH]n3)n2)cc1	1.4	-2
CCNc1cc(N(C)C)c2noc3c2c1C(=O)c1ccccc1-3	12	-67
CNCc1nonc1C	-0.8	-4
CCn1c(=N)n(CC(O)COc2cccc(C)c2)c2ccccc21 (centres undefined)	.	-1
O=c1[nH]c(-c2ccc3nsnc3c2)nc2ccccc12	.	6
CN(C)c1ccc(CNC2CCCCC2)cc1	.	14
CCCNC(C(=O)Nc1cc(C)ccc1C)c1ccccc1 (centres undefined)	.	-4
CSc1cc(-c2ccccn2)nc(C(C)(C)C)c1	0.8	.
COCc1nc(SC)[nH]c(=O)c1C	-3.9	.
COc1ccc2[nH]c3c(=O)n(Cc4ccc(C(=O)NCc5cccnc5)cc4)c(=S)[nH]c3c2c1	2.1	15
O=C(Cn1c(COc2ccccc2)nc2ccccc21)NCC1CCCO1 (centres undefined)	-1.7	3
CCS(=O)(=O)NCC1COC2(CCCCC2)O1 (centres undefined)	.	-12
Cc1cc(C)c(C2=Nn3c(C)nnc3SC2C)cc1C (centres undefined)	.	11
O=C(Cc1cccc2ccccc12)Nc1ccc(S(=O)(=O)N2CCCC2)cc1	-1.6	9
Cc1ccc2c(c1)C1CN(C)CCC1N2C(=S)NC(=O)c1ccco1 (centres undefined)	.	-1

# An excerpt from above in order of their number in MgrA-DNA mod, rising.
Compound	MgrA-DNA mod	S aureus helic
O=C(Cn1c(COc2ccccc2)nc2ccccc21)NCC1CCCO1 (centres undefined)	-1.7	3
CSc1cc(-c2ccccn2)nc(C(C)(C)C)c1	0.8	.
CCc1ccc(-c2nnn(Cc3nn[nH]n3)n2)cc1	1.4	-2

# New compounds follow
Compound	MgrA-DNA mod	S aureus helic
COc1ccc(C(=O)NCC(=O)n2nc(C)cc2C)cc1	.	8
O=C(N1CCOCC1)C12CC3CC(C1)CC(C(=O)N1CCOCC1)(C3)C2	-1.2	5
O=C(COc1ccc2ccccc2c1)Nc1ccc(NC(=O)c2ccco2)cc1	3.2	-8
Cc1ccc(CSc2n[nH]c(C(F)(F)F)n2)cc1	-1.6	.
C1C2OC3CC4C1C1CC4C3C21 (centres undefined)	.	30
O=C(NCc1ccco1)/C(=C/C=C\c1ccccc1)NC(=O)c1ccccc1	0.5	-16
C[C@@H]1NC(=O)NC1=O	0.6	.
CSc1sc(C(=O)NNC(C)=O)c2c1C=CCC2	-0.2	.
O=C(Nc1cccnc1)c1cc(-c2ccccc2)on1	1.9	12
COc1ccccc1OCc1nc(C#N)c(N(C)C)o1	-1.0	8
O=C(NC(=O)N1CCOCC1)c1nnc(-c2ccccc2)o1	-3.0	.
CC(C)(C)NC(=O)CSc1nnnn1-c1ccc(O)cc1	.	-15
CC1=C/C(=N/OC(=O)c2ccccc2)C=CC1=O	1.9	-1
O=C(COc1ccc(Cl)cc1Cl)OCC(=O)c1ccc(F)cc1	1.8	-23
COc1ccc(-c2nc3cc(Cl)ccc3o2)cc1	-3.2	0

# Six consecutive records already listed, for reference:
Compound	MgrA-DNA mod	S aureus helic
COc1ccccc1OCc1nc(C#N)c(N(C)C)o1	-1.0	8
O=C(NC(=O)N1CCOCC1)c1nnc(-c2ccccc2)o1	-3.0	.
CC(C)(C)NC(=O)CSc1nnnn1-c1ccc(O)cc1	.	-15
CC1=C/C(=N/OC(=O)c2ccccc2)C=CC1=O	1.9	-1
O=C(COc1ccc(Cl)cc1Cl)OCC(=O)c1ccc(F)cc1	1.8	-23
COc1ccc(-c2nc3cc(Cl)ccc3o2)cc1	-3.2	0

# Carrying on.
Compound	MgrA-DNA mod	S aureus helic
COc1ccc(/C=N/C(=S)NN)cc1	.	17
NC1=NN=C(c2ccc3c(c2)OCCO3)CS1	-1.8	-13
O=C(CCCC(=O)N1CCN(c2ccccc2F)CC1)c1ccccc1	.	2
COc1cccc(/C=C2/SC(=S)N(CCC(=O)Nc3c(C)n(C)n(-c4ccccc4)c3=O)C2=O)c1	0.9	.
Cn1c(=O)nc2n(-c3ccc(Cl)c(Cl)c3)c3ccccc3cc-2c1=O	-0.9	9
CN(C)c1nc(OCC(F)(F)F)nc(N(c2ccccc2)c2ccccc2)n1	0.9	8
Cc1ccc(S(=O)(=O)Nc2ccc(C(=O)Nc3cc(C)on3)cc2)cc1	-1.5	8
CC(C)(C)C(=O)Nc1ncccc1/C=C1\C(=O)Nc2ccccc21	-0.1	.
CCN1C(=O)C(CC(=O)Nc2ccc(OC)cc2)N(CCCN2CCN(c3ccc(OC)cc3)CC2)C1=S (centres undefined)	.	33
CC(C)C(N)c1cccs1 (centres undefined)	-0.5	4
O=C(NC1CCCC1)C1CCC(=O)N1Cc1ccc(F)cc1 (centres undefined)	.	4
COCCn1c(=NC(=O)c2cccs2)sc2cc(C(=O)OC)ccc21	.	15
O=C(NCc1n[nH]c(=S)n1-c1cccc(Cl)c1)c1ccccc1	.	-14
CC1CC(C)CN(C(=O)c2cc(Nc3cccc(C(F)(F)F)c3)nc3ccccc23)C1 (centres undefined)	-0.8	7
CC1CCc2c(nc3ncnn3c2NCCc2ccccc2F)C1 (centres undefined)	-2.7	7

# Continuation:
Compound	MgrA-DNA mod	S aureus helic
O=S(=O)(Nc1cccc(Br)c1)c1cccs1	0.7	8
CCNC(=O)c1ccc(-c2nc3ccccc3s2)s1	.	12
COc1ccc(NC(=S)NCc2ccncc2)cc1	-1.7	.
Cn1cc(-c2ccccc2C(=O)O)c(=O)c2ccccc21	-0.8	.
CCN(CC)c1nc(N)nc(N(c2ccccc2)c2ccccc2)n1	0.8	-18
CCCCN(CC)C(=O)c1cc2cc3ccc(C)cc3nc2o1	-2.0	14
O=C(CN1C(=O)/C(=C\c2ccccc2Br)Oc2ccccc21)NC1CC1	0.1	8
Nc1nc2cc(S(=O)(=O)N3CCCC3)ccc2o1	.	-14
COc1ccc(Cl)c(OC)c1C(N)=O	-0.6	.
CN1/C(=C/C=N/n2cnnc2)C(C)(C)c2ccccc21	1.4	-20
Nc1ccc2nc(CN3CCOCC3)[nH]c2c1	-0.2	-1
CCCNS(=O)(=O)c1ccc(Cl)c(C(F)(F)F)c1	.	5
O=C(Cn1c(C(=O)N2CCOCC2)cc2sccc21)c1ccccc1	-2.0	11
CNc1nc(C)nc(-c2ccccc2O)n1	.	2
Brc1ccc(-c2nnc3sc(CN4CCCCCC4)cn23)cc1	.	-2

# (list continues)
Compound	MgrA-DNA mod	S aureus helic
CCc1[nH]c(=O)c(C#N)c2c1CCCC2	-0.3	4
CCOC(=O)Cc1n[nH]c(CC(=O)OCC)n1	-0.2	-5
N#Cc1c(N)sc2c1CCCCC2	1.1	.
Cc1onc(-c2c(Cl)cccc2Cl)c1C(O)c1ccccc1 (centres undefined)	-1.8	.
CC(NC(=O)c1cc(=O)c2ccccc2o1)C(c1ccccc1)N1CCOCC1 (centres undefined)	.	35*
CCCN1CCC(NC(=S)NCCOC)CC1	0.2	12
O=CNc1cccc(O)c1	.	-8
Cc1ccc(OCCn2c(=O)sc3ccccc32)cc1	.	11
CCOc1ccccc1NC(=O)CSc1ncnc2ccccc12	.	-11
O=C(NCc1ccccc1)c1cnn2c(C(F)(F)F)cc(-c3ccco3)nc12	2.0	13
CC(=O)Nc1ccc(C(=S)NCCCO)cc1	.	3
O=c1n(CN2CCOCC2)c2ccccc2n1CN1CCOCC1	-0.7	15
COc1cccc(OCc2ccccc2)c1C#N	-2.4	.
C=CCSc1ncnc2c1cnn2-c1ccccc1	-1.8	.
O=C(CCc1nc2sc3c(c2c(=O)[nH]1)CCCC3)NC1CCCC1	3.0	0

# (cont.)
Compound	MgrA-DNA mod	S aureus helic
COc1ccc(NC(=S)SC)cc1OC	-3.5	0
NC(=O)c1cn(-c2ccc(F)cc2)c(=O)c2ccccc12	0.2	.
CCSc1nsc(SCC)c1C(=O)O	-6.4	-3
CCNc1[nH]c(=S)nc2c1cnn2-c1ccccc1	-2.4	.
COc1ccc(CCn2c(C)nc(=O)c(-c3ccccc3)c2C)cc1OC	0.6	3
CC1CC(=O)c2cnc(N3CCCCC3)nc2C1 (centres undefined)	0.3	-2
CCN(Cc1ccccc1)C(=O)c1nn(C)c(=O)c2ccccc12	.	23
CN(C)C(=O)CSc1nnc(-c2cccc(F)c2)n1-c1ccccc1	-1.2	7
CC(=O)NC1=NN(C(C)=O)C2(S1)C(=O)N(Cc1ccccc1)c1ccccc12 (centres undefined)	-0.6	-12
Fc1ccc(CNCc2cccnc2)cc1	2.0	-10
COC(=O)/C=C1/NC(=O)CS1	0.2	-11
O=C(CSc1nnc2ccccn12)NCCc1ccccc1	.	-11
Cc1ccc(S(=O)(=O)N(C)C2CCCCC2)cc1C	.	1
Cc1[nH]nc2oc(=O)c(Cl)c(C)c12	.	6
O=C(c1nn2c(c1Br)NC(c1ccco1)CC2C(F)(F)F)N1CCN(Cc2ccccc2)CC1 (centres undefined)	1.0	.

# Additional results:
Compound	MgrA-DNA mod	S aureus helic
COc1ccc(S(=O)(=O)N(C)CC(=O)NCc2ccc3c(c2)OCO3)cc1	-0.3	5
Cc1cc(Cl)ccc1OC(C)C(=O)Nc1ccc2c(c1)OCO2 (centres undefined)	3.5	-7
CCc1ccc2c(CC(=O)N3CCN(S(=O)(=O)c4cccs4)CC3)coc2c1	.	-18
CCCC1(C(=O)OCC)CC(CSC(=N)N)OC1=O (centres undefined)	-0.7	10
CN(C)S(=O)(=O)c1cccc(CSc2nnnn2-c2ccccc2)c1	.	-15
O=C(NCCn1ccc2ccccc21)c1ccc(S(=O)(=O)N2CCCC2)cc1	.	-24
CCC(C)NCC(=O)Nc1ccc2c(c1)c1ccccc1n2CC (centres undefined)	.	7
OCC1CC=C(Cl)CC1CO (centres undefined)	.	1
CC(C)N(C(=O)COc1ncnc2ccc(Br)cc12)c1ccccc1	.	-5
CC(C)(C)N1CC(CO)OC1c1ccccc1 (centres undefined)	-0.4	-5
COc1ccc(N2CCN(S(C)(=O)=O)CC2)cc1	0.4	-2
O=C(N1CCOCC1)C(F)(F)F	0.8	8
COCCn1c(C)cc(/C=C(\C#N)C(=O)OCc2cc(=O)oc3cc4c(cc23)CCC4)c1C	.	-189
CCCNC(=O)c1cc2c(=O)n3cccc(C)c3nc2s1	0.1	12
COc1ccc(NC(=O)C2CC(C)=C(C)CC2C(=O)O)c(N2CCOCC2)n1 (centres undefined)	2.8	.
O=C(COc1ccc(S(=O)(=O)N2CCOCC2)cc1)Nc1ccccc1C(F)(F)F	0.4	-2
CCN(CC)S(=O)(=O)c1ccc2c(c1)nc(CCC(=O)N1CCN(c3ccccc3)CC1)n2CC	.	13

# Screening data deposited in PubChem by ICCB-Longwood Screening Facility, Harvard Medical School.

# Some of the compounds tested. The share of hits here may be higher or lower than overall.
